# EPAC2 ant val – validation of human EPAC2 antagonists; Q8WZA2; EPAC2 Rap1B BODIPY-GDP exchange, fluorescence; Potency, µM (top dose mostly 112 µM), without a hit: at the top dose activity, negative = inhibition, most hits filed as inhibitors; actives 1.7% (n = 16,000); active = well fitted inhibition curve with a large enough effect;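 also: 100% = activation by cAMP agonist control; nearly all actives have a fitted effect of over 40% in size; the record reuses the description of the EPAC1 agonist screen; inactives centre near -10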
#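 Normalized against a 6.5 mM cAMP agonist control, compounds were tested on 100 nM EPAC2 exchanging Rap1B-bound BODIPY-GDP (250 nM) for 50 uM GDP. Fluorescence drop (ex 480, em 540 nm) was tracked at room temperature over 30 min at 5-min intervals.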
# Numbers without * were called inactive; & = joins results of further samples; [ ] = remark or other dose. Potency is read from the fitted curve at half-maximal effect.
no. | SMILES | EPAC2 ant val
1 | C=C1C(=O)O[C@@H]2C[C@@H](C)[C@@H]3C=CC(=O)[C@@]3(C)[C@@H](O)[C@H]12 | 27%[239 µM]
2 | COC(C/C=C/C=C/CC/C=C\CC(C)/C=C\C(=C/C(=O)O)CC(=O)O)/C(C)=C\C=C(/C)C(=O)O (stereo not given) | -7%[11.4 µM]
3 | C1CC[C@H]([C@@]23C[C@H](C[C@H]4CCCN[C@H]42)[C@@H]2CCCCN2C3)NC1 | 4%
4 | CC(C)C(Br)C(=O)NC(N)=O (stereo not given) | -13%
5 | C[C@@H]1O[C@@H](O[C@H]2C[C@@H](O)[C@]3(CO)[C@H]4[C@H](O)C[C@]5(C)[C@@H](C6=CC(=O)OC6)CC[C@]5(O)[C@@H]4CC[C@]3(O)C2)[C@H](O)[C@H](O)[C@H]1O | -6%&-12%&-19%
6 | COc1ccc2c3c1O[C@H]1[C@H](O)CC[C@H]4[C@@H](C2)N(C)CC[C@@]341 | -7%[239 µM]
7 | C[C@@H]1O[C@@H](O[C@H]2C[C@@H](O)[C@]3(CO)[C@@H]4C(CC[C@]3(O)C2)[C@@]2(O)CC[C@H]([C@@H]3COC(=O)C3)[C@@]2(C)C[C@H]4O)[C@H](O)[C@H](O)[C@H]1O (stereo not given in full) | 1%
8 | c1cc2c(c(N3CCNCC3)c1)OCCO2 | 17%

# Results in sequence from the entries so far.
# EPAC2 ant val, nos. 1–8, in order: 27%[239 µM], -7%[11.4 µM], 4%, -13%, -6%&-12%&-19%, -7%[239 µM], 1%, 17%

# The list goes on:
no. | SMILES | EPAC2 ant val
9 | OCC1OC(n2cnc3cc(Cl)c(Cl)cc32)C(O)C1O (stereo not given) | -25%
10 | c1ccc2nc(N3CCNCC3)ccc2c1 | -4%&-11%&-17%
11 | CN1CC[C@@]2(CCCN(C(=O)c3ccco3)C2)C1 | -26%
12 | CC1(C)S[C@H]2[C@@H](N)C(=O)N2[C@H]1C(=O)O | -4%
13 | C=C1C/C(=C/C)C(=O)O[C@@H]2CCN3CC=C(COC(=O)[C@]1(C)O)[C@@H]23 | -10%
14 | CN1CCN(C(=O)OC2c3nccnc3C(=O)N2c2ccc(Cl)cn2)CC1 (stereo not given) | -19%&-6%
15 | C[C@]12CCC3C(CC[C@]4(O)CC(O)CC[C@@]34C=O)[C@]1(O)CCC2C1=CC(=O)OC1 (stereo not given in full) | -6%
16 | c1ccc(N2CC[C@@]3(CCCNC3)C2)nc1 | -10%

# By substructure, those above containing a Cl atom
no. | SMILES | EPAC2 ant val
9 | OCC1OC(n2cnc3cc(Cl)c(Cl)cc32)C(O)C1O (stereo not given) | -25%
14 | CN1CCN(C(=O)OC2c3nccnc3C(=O)N2c2ccc(Cl)cn2)CC1 (stereo not given) | -19%&-6%

# 3 entries picked at random from those above, as already listed:
no. | SMILES | EPAC2 ant val
11 | CN1CC[C@@]2(CCCN(C(=O)c3ccco3)C2)C1 | -26%
12 | CC1(C)S[C@H]2[C@@H](N)C(=O)N2[C@H]1C(=O)O | -4%
16 | c1ccc(N2CC[C@@]3(CCCNC3)C2)nc1 | -10%

# An excerpt, so the mix of outcomes need not match the whole.
